# RE007 growth inh – less growth of the S. pombe RE007 Vpr strain; 360,000 compounds, 0.21% hits; Potency, µM (top dose mostly 92.2 µM), for the others: at the top dose activity change, negative = less growth; S. pombe RE007 Vpr strain, BacTiter-Glo ATP luminescence, 24 h; control for the full effect not named in the record; active = well fitted falling curve with a large enough effect; inconclusive = small, poorly fitted or top-dose-only effect; inactive = no such curve, though single readings can be large or run the other way;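 note: % is set by controls: 0 for no effect and ±100 for the full control effect; nearly all actives have a fitted effect of over 50% in size; the assay follows cell death caused by Vpr and the record does not say whether a fall means rescue or toxicity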
#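 Fission yeast RE007 carrying one integrated HIV-1 vpr copy, seeded at OD 0.01 in PMG+AL medium with 23 nL pinned compound. Grown 24 h at 30 degrees; viability read by BacTiter-Glo luminescence after 5 min.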
# Marburg entry inh – inhibitors of Marburg virus binding or cell entry. AID 540276. Potency, µM (highest dose often 37.8 µM), for the others: top-dose activity change, negative = inhibition, hits mostly inhibitors. 300,000 compounds, 1.8% hits. Marburg virus pseudotyped entry inhibition, cell reporter; control for the full effect not named in the record; about a third of the inactives were read at about 46 µM; active = well fitted inhibition curve with a large enough effect; inconclusive = small, poorly fitted or top-dose-only effect, or effect the other way; inactive = flat fitted curve, though single readings scatter; tested in HEK293 cells; about a fifth of its hits are not listed in these tables; note: % is set by controls: 0 for no effect and ±100 for the full control effect; luciferase read-out
# Cruzain inh Det – cruzain (T. cruzi) inhibition with detergent | P25779 | Potency, µM, for inactives: max response, negative = inhibition, usual class: inhibitors | 200,000 compounds, 0.43% hits | purified cruzain, Z-FR-AMC fluorescence, 0.01% Triton | AID 1478; active = well fitted curve in the direction sought with a large enough effect; inconclusive = small, poorly fitted or top-dose-only effect, or another doubt; inactive = no such curve, though single readings can be large; an effect the other way counts as inactive or inconclusive;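 note: plate controls were neutral wells for no effect and buffer without enzyme for full effect; nearly all actives have a fitted effect of over 40% in size; top concentration of the series not given in the record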
# Target sequence (P25779 123-467 limits assumed): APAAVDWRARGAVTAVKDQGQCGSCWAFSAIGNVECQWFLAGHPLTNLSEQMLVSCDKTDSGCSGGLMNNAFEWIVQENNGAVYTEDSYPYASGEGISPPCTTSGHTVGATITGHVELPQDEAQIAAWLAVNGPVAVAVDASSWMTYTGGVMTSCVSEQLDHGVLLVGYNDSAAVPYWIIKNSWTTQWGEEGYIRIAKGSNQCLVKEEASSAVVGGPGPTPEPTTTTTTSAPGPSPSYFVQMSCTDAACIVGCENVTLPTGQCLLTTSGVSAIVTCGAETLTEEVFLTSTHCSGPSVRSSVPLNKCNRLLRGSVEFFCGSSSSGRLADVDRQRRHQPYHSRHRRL
#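 Steps: dispense cruzain (1.5 nM final) in acetate buffer pH 5.5 with DTT and 0.01% Triton X-100; pin-transfer compounds; incubate 15 min RT; add Z-FR-AMC (2 uM final); read fluorescence every 30 s, using the 60 s intensity change.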
# StopGo reporter – lowers the luciferase signal of an FMDV 2A StopGo reporter. 410,000 compounds, 1.2% hits. human cells with a luciferase reporter of 2A StopGo recoding; control for the full effect not named in the record. Potency, µM (series often up to 57.9 µM), without a hit: top-dose signal change, negative = less light; active = well fitted falling curve with a large enough effect; inconclusive = small, poorly fitted or top-dose-only effect; inactive = no such curve, though single readings can be large or run the other way; tested in HEK293T cells; note: % is set by controls: 0 for no effect and ±100 for the full control effect; nearly all actives have a fitted effect of over 45% in size; luciferase light after 4 h
# NS1 function inh – blocks influenza NS1 protein function; S. cerevisiae slowed by influenza A NS1, growth recovery by OD600; Potency, µM (doses to about 46.1 µM), inactives show at the highest dose activity, positive = more growth; 270,000 compounds, 0.4% hits; note: actives are rising curves; nearly all actives have a fitted effect of over 50% in size
#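 A cell-based growth assay was used: compounds that relieve NS1-induced slow growth of budding yeast raise OD600. Assay medium was yeast nitrogen base with ammonium sulphate and -URA supplement, pH 6.0, with 2% galactose.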
# Cruzain noTriton – blocks cruzain activity in detergent-free assay | 200,000 compounds, 2.3% hits | purified cruzain, Z-FR-AMC fluorescence, no detergent | Potency, µM, for the others: max response, negative = inhibition, most hits filed as inhibitors | AID 1476; active = well fitted curve in the direction sought with a large enough effect; inconclusive = small, poorly fitted or top-dose-only effect, or another doubt; inactive = no such curve, though single readings can be large; an effect the other way counts as inactive or inconclusive;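 note: plate controls were enzyme without inhibitor for no effect and buffer without enzyme for full effect; nearly all actives have a fitted effect of over 40% in size; top concentration of the series not given in the record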
#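 Detergent-free condition (0.00005% Triton X-100) in acetate buffer pH 5.5 with DTT. 1.5 nM enzyme and compound were pre-mixed 15 min, then 2 uM Z-FR-AMC substrate added; reaction progress from fluorescence change between first and third reads (60 s).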
# SARS PLpro yeast – SARS-CoV PLP inhibition in yeast. S. cerevisiae expressing SARS-CoV PLpro, growth rescue; control for the full effect not named in the record. Potency, µM (series often up to 32.9 µM), for inactives: at the top dose activity, positive = growth rescue. 330,000 compounds, 0.19% hits; note: 0% is about no effect; nearly all actives have a fitted effect of over 55% in size; growth read by luminescence after 48 h
# Lassa entry inh – inhibitors of Lassa virus binding or cell entry | Potency, µM (doses to about 37.9 µM), for inactives: top-dose activity change, negative = inhibition, actives largely listed as inhibitors | 300,000 compounds, 1.2% hits | Lassa virus pseudotype entry inhibition, cell reporter; control for the full effect not named in the record; active means well fitted inhibition curve with a large enough effect; inconclusive means small, poorly fitted or top-dose-only effect, or effect the other way; inactive means flat fitted curve, though single readings scatter; tested in HEK293 cells; note: % is set by controls: 0 for no effect and ±100 for the full control effect; nearly all actives have a fitted effect of over 50% in size; luciferase read-out
# * marks the source's active call; other numbers are inactive results; ? = inconclusive; · = not tested or not shown; [ ] = dose if it differs, or a comment. Unless noted, calls come from the whole dose curve; as a rule, active means well fitted rising curve with a large enough effect; inconclusive means small, poorly fitted or top-dose-only effect; inactive means no such curve, though single readings can be large or run the other way. Potency is the fitted concentration of half-maximal effect. Compounds were not picked by outcome; about 4.6% have a hit in one of these screens.
SMILES,RE007 growth inh,Marburg entry inh,Cruzain inh Det,StopGo reporter,NS1 function inh,Cruzain noTriton,SARS PLpro yeast,Lassa entry inh
Cc1ccc(S(=O)(=O)N2CCC(N3CCC(C)CC3)CC2)cc1,-21%,23%,·,-25%,-15%,·,0%,?
O=C(NCCCN1CCCC1)c1ccc2c(c1)N(Cc1ccccc1)CCS2,14%,?,·,0%,5%,·,0%,-29%
O=C(NCc1ccc2c(c1)OCO2)C1CCCN(C(=O)c2ccc(Cl)cc2)C1 (stereo not drawn),19%,3%,2.8%,-5%,11%,3%,2%,-6%
CCOC(=O)CNC(=O)N1CCCC(CNS(=O)(=O)c2cccs2)C1 (stereo not drawn),3%,?,·,3%,5%,·,-1%,17%[46.1 µM]
CCN1C(=O)/C(=C\c2nc3ccccc3c(=O)n2-c2ccccc2)c2ccccc21,0%,?,-14%,14µM*,-12%,?,7%,?
CC(C)C(NC(=O)C1CCCCC1)C(=O)NC1CCN(Cc2ccccc2)CC1 (stereo not drawn),·,1%,-21%,·,-9%,-7%,8%,·
Cc1cc(N=Cc2cc(Br)ccc2O)no1,-11%,18%,5.3%,0%,-49%,-9%,2%,-3%
O=C(O)Cn1nnn(-c2ccccc2)c1=S,13%,4%,0.3%,5%,6%,-10%,·,?
O=C(CSc1nc2ccccc2o1)Nc1nncs1,14%,-14%,3.5%,25%,-8%,3%,-11%,-13%
Cc1c(CCC(=O)NC2CC2)c(=O)oc2c(C)c(O)ccc12,-7%,·,·,-11%,29%,·,4%,·
[N-]=[N+]=N[C@@H](CCN1CC[C@H](NC(=O)OCc2ccccc2)CCC1=O)c1ccccc1,-1%,·,·,-23%,-5%,·,-4%,·
COc1ccc(CNC(=O)CCCc2cn(C)c3ccccc23)c(OC)c1,·,·,-0.3%,-6%,·,6%,·,8%[46.1 µM]
O=S(=O)(NCCSc1ccccc1)c1cccs1,-6%,?,2.5%,34%[activator],-11%,0%,-1%,-15%
Cc1ccccc1C(=O)Nc1nc2n(n1)C(c1ccccc1)CC(=O)N2 (stereo not drawn),13%[3.69 µM],14%,3.0%,-18%,1%,3%,-6%,-9%
Cc1cc(OCC(=O)N2CCCN(C)CC2)ccc1Cl,-1%,11%[46.1 µM],·,20%,6%,·,3%,18%[46.1 µM]
CCN(CC)CCCN(C(=O)Cn1nnc(-c2ccc(OC)c(OC)c2)n1)C(C(=O)NC(C)(C)C)c1ccc(F)cc1 (stereo not drawn),-6%,·,·,4%,-2%,·,0%,·
Cc1c(NC(=O)CN2CCCc3ccccc32)c(=O)n(-c2ccccc2)n1C,0%,2%,3.3%,12%,-4%,1%,-3%,-3%
COc1ccc(-n2c(SCC(=O)N3CCCCC3)nc(O)cc2=O)cc1,-14%,4%,-0.7%,-13%,11µM*,17%,0%,14%
COc1ccc(Cc2nc3c4c(ncn3n2)Oc2ccc3ccccc3c2C4c2ccc(OC)c(OC)c2)cc1 (stereo not drawn),·,-25%,0.9%,-14%,5%,-10%,2%,?
CC(C)c1ccc(CCNC(=O)CCNC(=O)c2ccc(Br)cc2)cc1,5%,-3%,·,-19%,-4%,·,-4%,0%
Cc1cc(C)c(C(=O)CSC2=NC(N)=C(C#N)C3(CCCCC3)C2C(N)=O)cc1C (stereo not drawn),8%,?,-7.1%,?,8%,-1%,8%,-19%[14.3 µM]
CCC(=O)Nc1ccc(NC(=S)NC(=O)c2cc3ccccc3o2)cc1,?,11%,-3.0%,7%,5%,-27%,18%,-15%
CCOC(=O)c1cccc(NC(=O)NCc2ccc3c(c2)CCN3C(=O)CC)c1,·,·,-2.6%,-20%,·,?,·,-12%[46.1 µM]
COc1cc(-c2nnc(NC(=O)C3=COCCO3)o2)cc(OC)c1OC,-8%,?,·,-3%,·,·,-6%,10%
CSc1nnc([C@H](C)NC(=O)OC(C)(C)C)o1,8%,24%,7.0%,12%,-7%,10%,0%,-13%
CC(C)N(CCNC(=O)C1CCC(=O)N1Cc1ccc(F)cc1)Cc1ccccc1 (stereo not drawn),3%,-8%,-1.6%,3%,-6%,9%,-2%,-22%
COc1ccc2[nH]c3c(c2c1)CCN1C(=O)C(CC(=O)NC/C=C(\C)CCC=C(C)C)C[C@H](C(=O)N(C(C)C)C(C)C)[C@@]31C (stereo partly drawn),-7%,-6%,·,-9%,·,·,-42%,·
CC(C)(C)c1ccc(OCCC(=O)Nc2cccc(S(=O)(=O)N3CCCCC3)c2)cc1,-16%,?,-8.7%,-27%,?,3%,-3%,?
O=C(Cc1nn[nH]n1)Nc1cc(Cl)cc(Cl)c1,-4%,·,·,8%,-1%,·,2%,·
COc1ccc(NC(=O)C2=Cc3cccc(OC)c3OC2)cc1,-22%,-30%[46.1 µM],·,15%,-5%,·,-1%,·

# Next section.
SMILES,RE007 growth inh,Marburg entry inh,Cruzain inh Det,StopGo reporter,NS1 function inh,Cruzain noTriton,SARS PLpro yeast,Lassa entry inh
CN(C)S(=O)(=O)c1ccc(C(=O)NCCOc2ccccc2)cc1,-23%,?,0.3%,19%,-1%,8%,1%,1%
O=C(CS(=O)(=O)c1cn(Cc2ccc(F)cc2)c2ccccc12)N1CCOCC1,-3%,·,·,?,-12%,·,-2%,·
COc1ccc(C)cc1NC(=O)C(=O)NCCc1csc(-c2ccc(C)cc2)n1,·,·,-1.6%,-4%,·,-11%,·,-3%[46.1 µM]
Cc1cc(-c2ccccc2)cc(-c2ccccc2)[n+]1C,-12%,?,·,-18%,·,·,1%,?
Cn1c(SCC(=O)NC2CCCCC2)nnc1-c1cc2ccccc2o1,-3%,5%[46.1 µM],-1.2%,0%,-4%,-5%,10µM*,0%
NC(=O)c1ccc(-n2nnnc2SCC(=O)Nc2ccccc2-c2ccccc2)cc1,9%,-1%,-1.7%,?,-7%,3%,1%,-23%
O=C(Nc1ccccc1N1CCOCC1)c1ccc(N2CCOCC2)c([N+](=O)[O-])c1,7%,-3%[46.1 µM],·,-7%,·,·,1%,-21%[46.1 µM]
CCCCOc1cccc(NC(=O)CSc2nncn2C)c1,14%,-10%,-2.7%,7%,12%,8%,3%,?
O=C(c1cc(-c2ccc(Br)cc2)on1)N1CCCCCC1,8%,?,·,26%,1%,·,0%,?
COc1ccc(CCCc2nnc(SCC(=O)NN)o2)cc1,-8%,9%[46.1 µM],·,-19%,·,·,3%,-13%
CC(=O)Nc1ccc(N2CCOCC2)c(Cl)c1,3%,·,·,-20%,1%,·,13%,·
O=C(Nc1cc(C(=O)N2CCN(c3ccccc3O)CC2)ccc1Cl)c1cccs1,7%,?,·,-13%,·,·,2%,?
COc1ccc(CN2CC(C(=O)NC3CCCCC3)CC2=O)cc1 (stereo not drawn),1%,·,·,-15%,4%,·,-1%,·
OC(COc1ccccc1Cl)CN1CCN(CC(O)COc2ccccc2Cl)CC1 (stereo not drawn),1%,?,-4.8%,-27%,-14%,8%,4%,-19%
Nc1c(C(=O)Nc2ccc(Cl)cc2)sc2nc3c(cc12)N1CCC3CC1,·,0%[46.1 µM],-5.6%,?,·,14%,·,?
NS(=O)(=O)OC(CCc1ccccc1)C(Cl)(Cl)Cl (stereo not drawn),45%,·,·,-1%,-6%,·,-4%,·
CC(=O)NCC(=O)OCc1ccc([N+](=O)[O-])cc1,·,0%,-0.9%,-9%,-2%,0%,?,15%
CCCN(Cc1ccccc1)C(=S)NC(=O)c1ccccc1[N+](=O)[O-],-4%,·,·,23%,0%,·,-3%,-7%
O=C(CSc1nc2ccccc2s1)Nc1ccc2c(c1)oc1ccccc12,·,23%,-1.7%,12%,18%,16µM*,24%,?
O=C(N/C(=C\c1ccco1)C(=O)N1CCCC1)c1ccccc1,13%,-18%[46.1 µM],·,-6%,4%,·,1%,·
CCOc1ccc(CNC(=O)CSc2nnc(C)c3c(C)n(-c4ccc(Cl)cc4)nc23)cc1,·,·,-3.7%,?,·,2%,·,6%[46.1 µM]
COc1ccccc1NC(=O)c1ccccc1S(=O)(=O)c1ccc([N+](=O)[O-])cc1,-12%,11%,·,?,-1%,·,0%,-6%
COc1ccc(CNC(=O)CN(C)Cc2ccccc2F)cc1OC,-3%,-2%[46.1 µM],·,-24%,4%,·,0%,1%
CCS(=O)(=O)N1CCCC(C(=O)NCCc2ccc(OC)c(OC)c2)C1 (stereo not drawn),4%,2%,3.9%,?,0%,3%,4%,1%
Cc1cc(/C=C(/C#N)C(=O)Nc2ccc(Cl)cc2)c(C)n1-c1cccnc1,-3%,?,-20%,?,5%,4%,2%,-5%
Cc1cccc(NC(=O)CSc2nc(-c3cccs3)cc(C(F)(F)F)c2C#N)c1,·,?,-1.7%,-14%,·,10%,·,-28%[46.1 µM]
C=CCOc1ccc(/C=C/C(=O)OCc2csc(CC(=O)Nc3ccccc3C)n2)cc1,13%,?,·,-12%,·,·,-5%,-6%
COc1ccccc1NC(=O)C(CC=C(Cl)Cl)C(C)=O (stereo not drawn),-6%,0%,-4.5%,-14%,-12%,8%,6%,-19%
NC(=O)c1ccc(NC(=O)Cc2cccs2)cc1,18%,?,·,-8%,?,·,7%,-6%[46.1 µM]
COc1ccc(C(=O)Nc2c(N)nc(SCC(=O)N3CCC(C)CC3)[nH]c2=O)cc1,-9%,-1%,·,-25%,8%,·,-4%,9%
C=CCNC(=O)c1ccccc1NC(=O)Cc1ccccc1[N+](=O)[O-],0%,-14%,-1.6%,8%,5%,3%,-7%,?
CCOC(=O)c1ccc(N2CCOCC2)c(NS(=O)(=O)c2ccc(F)cc2)c1,2%,6%,·,-13%,-29%,·,0%,?
CCc1ccc(C2=NN(C(C)=O)C(c3ccco3)C2)cc1 (stereo not drawn),-21%,·,·,85%[activator],-5%,·,0%,·

# Screening data from PubChem.
